HPGD block – qHTS Assay for Inhibitors of HPGD (15-Hydroxyprostaglandin Dehydrogenase) | 150,000 compounds, 4.3% hits | 15-hydroxyprostaglandin dehydrogenase [NAD(+)] (Homo sapiens), P15428 | purified HPGD, NADH fluorescence kinetic, PGE2 substrate | AID 894, 2007 | Potency, µM, for inactives: at the top dose activity change, negative = inhibition, actives largely listed as inhibitors; active = well fitted inhibition curve with a large enough effect (not every such curve was filed as active); inconclusive = small, poorly fitted or top-dose-only effect, or another doubt; inactive = no such curve, though single readings can be large or run the other way;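 note: top concentration of the series not given in the record; plate controls included wells without enzyme; inactives centre near -10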
Target sequence (P15428 whole entry, looked up): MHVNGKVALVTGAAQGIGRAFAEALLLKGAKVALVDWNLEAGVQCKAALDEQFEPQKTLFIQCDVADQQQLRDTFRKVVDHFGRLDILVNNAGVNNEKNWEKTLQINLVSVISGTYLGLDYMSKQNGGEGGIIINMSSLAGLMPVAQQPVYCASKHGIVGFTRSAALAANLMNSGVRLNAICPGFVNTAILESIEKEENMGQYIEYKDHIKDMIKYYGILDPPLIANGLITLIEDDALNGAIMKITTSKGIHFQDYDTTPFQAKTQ
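NADH formation kinetics: reaction with 30 uM PGE2 and 1 mM NAD+ (final), 20 nM enzyme, Tris-HCl pH 8 with Tween 20, after 15 min compound preincubation at room temperature. Fluorescence change, last versus first of five reads.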
* = called active by the depositor; ? = inconclusive; & = joins results of further samples. % is set by controls: 0 for no effect and ±100 for the full control effect; potency is the fitted concentration of half-maximal effect. This is a subset; count on the stated rates, not on these rows.

SMILES | HPGD block
N#Cc1ccc(C(c2ccc(C#N)cc2)n2cncn2)cc1 | 8%
Cc1cncn1CCc1nc2c3ccccc3nc(SCC(=O)Nc3cccc(Cl)c3)n2n1 | -12%
N[C@@H](Cc1c[nH]c2ccc(O)cc12)C(=O)O | -9%&-11%
CCC(NC(C)C)C(O)c1ccc(O)c2[nH]c(=O)ccc12 (stereo not given) | -4%
Cc1cccc2c1NC(=O)C2(c1ccc(O)cc1)c1ccc(O)cc1 | 3%
CC(C)=CCOc1c2ccoc2cc2oc(=O)ccc12 | -9%
CC1Cc2ccccc2N1NC(=O)c1ccc(Cl)c(S(N)(=O)=O)c1 (stereo not given) | -1%&-3%
CN1CCCN=C1COC(=O)C(O)(c1ccccc1)C1CCCCC1 (stereo not given) | -2%&-9%
Oc1ccc(/C=C\c2cc(O)cc(O)c2)cc1 | ?
CN[C@H]1[C@@H](O)[C@@H](NC)[C@@H]2O[C@@]3(O)C(=O)C[C@@H](C)O[C@H]3O[C@H]2[C@H]1O | -2%
C1CCC(C(C[C@@H]2CCCCN2)C2CCCCC2)CC1 | -1%
COc1cc2ncnc(Nc3cccc(Cl)c3)c2cc1OC | ?

Continuation:
SMILES | HPGD block
C/C=C(/C)C(=O)OC(C)(C)[C@@H]1Cc2c(ccc3ccc(=O)oc23)O1 | ?
CCN(CC)CCOC(=O)c1ccc(N)cc1 | -15%&-8%&-3%
COc1ccc(C2CNC(=O)C2)cc1OC1CCCC1 (stereo not given) | -7%&-7%&-3%
O=C(c1ccccc1)c1ccc2n1CC[C@H]2C(=O)O | -17%
COc1c(O)cc2c(c1O)C1OC(CO)C(O)[C@H](O)[C@H]1OC2=O (stereo not given in full) | -12%
C/C=C/C(=O)N(CC)c1ccccc1C | -6%
CCCCNc1ccc(C(=O)OCCN(C)C)cc1 | -19%&-21%&-18%&-12%
C[C@H](N[C@@H](C)COc1ccccc1)[C@H](O)c1ccc(O)cc1 | 1%
CC[C@H](NC(C)C)[C@H](O)c1ccc(O)c2[nH]c(=O)ccc12 | -6%
O=C(O)CCC(=O)c1ccc(-c2ccccc2)cc1 | -15%&-10%&-5%
O=C(O)c1cccnc1Nc1cccc(C(F)(F)F)c1 | -6%&-5%&-19%&-15%
COc1nccc(-c2c(-c3ccc(F)cc3)ncn2C2CCC(O)CC2)n1 (stereo not given) | -12%

Other records:
SMILES | HPGD block
CC(=O)CCCCn1c(=O)c2c(ncn2C)n(C)c1=O | -5%&-2%&-10%&-1%
CC1CC2C3CCC4=CC(=O)C=C[C@]4(C)[C@@]3(Cl)C(O)C[C@]2(C)C1(OC(=O)c1ccco1)C(=O)CCl (stereo not given in full) | -5%
C#C[C@@]1(O)CC[C@@H]2[C@@H]3CCC4=CC(=O)CC[C@@H]4[C@H]3CC[C@]21CC | 4%
NC(N)=O | -8%&-4%
CCn1cc(C(=O)O)c(=O)c2cnc(N3CCNCC3)nc21 | -10%&-2%&-10%
CC(=O)OCC(=O)[C@@]1(O)CC[C@@H]2[C@H]3CCC4=CC(=O)C=C[C@]4(C)[C@]3(F)[C@@H](O)C[C@@]21C | -10%
CCCCCC(=O)O[C@]1(C(C)=O)CC[C@H]2[C@@H]3CCC4=CC(=O)CC[C@]4(C)[C@H]3CC[C@@]21C | -11%
Cc1ccc(=O)n(-c2ccccc2)c1 | ?
COc1ccc(C[C@H]2COC(=O)[C@@H]2Cc2ccc(OC3OC(CO)C(O)C(O)C3O)c(OC)c2)cc1OC (stereo not given in full) | -8%
CC(=O)O[C@]1(C(C)=O)CC[C@@H]2[C@@H]3C=C(Cl)C4=CC(=O)[C@H]5C[C@@H]5[C@]4(C)[C@H]3CC[C@]21C | 0%
COc1cc(N)c(Cl)cc1C(=O)N[C@H]1CCN(CCCOc2ccc(F)cc2)C[C@@H]1OC | -16%
CCc1ccc(CCOc2ccc(CC3SC(=O)NC3=O)cc2)nc1 (stereo not given) | -23%

Overlap with the part before: 6 compounds; new compounds follow.
SMILES | HPGD block
CCCCCC(=O)O[C@]1(C(C)=O)CC[C@H]2[C@@H]3CCC4=CC(=O)CC[C@]4(C)[C@H]3CC[C@@]21C | -11%
Cc1ccc(=O)n(-c2ccccc2)c1 | ?
COc1ccc(C[C@H]2COC(=O)[C@@H]2Cc2ccc(OC3OC(CO)C(O)C(O)C3O)c(OC)c2)cc1OC (stereo not given in full) | -8%
CC(=O)O[C@]1(C(C)=O)CC[C@@H]2[C@@H]3C=C(Cl)C4=CC(=O)[C@H]5C[C@@H]5[C@]4(C)[C@H]3CC[C@]21C | 0%
COc1cc(N)c(Cl)cc1C(=O)N[C@H]1CCN(CCCOc2ccc(F)cc2)C[C@@H]1OC | -16%
CCc1ccc(CCOc2ccc(CC3SC(=O)NC3=O)cc2)nc1 (stereo not given) | -23%
CCCCCCCCCCCCCCC[C@H](O)[C@@H](N)CO | -5%
CN1CCO[C@H](c2ccccc2)c2ccccc2C1 | 0%
Oc1ccc(C2CNCCc3c2cc(O)c(O)c3Cl)cc1 (stereo not given) | -16%
CNC1C(O)C2OC3OC(C)CC(=O)[C@@]3(O)O[C@H]2[C@H](NC)C1O (stereo not given in full) | -2%
Oc1ccc2c(c1)OCC1(O)Cc3cc(O)c(O)cc3C21 (stereo not given) | ?
Cc1ccc(N(CC2=NCCN2)c2cccc(O)c2)cc1 | 2%&-11%&-14%&-10%&-10%&-1%
C[N+]1(C)CCC(=C(c2ccccc2)c2ccccc2)CC1 | -5%
C1COC(NC(C2CC2)C2CC2)=N1 | 1%&-4%&-13%&-5%
CCCCC(=O)O[C@@]1(C(=O)CO)C(C)CC2C3CCC4=CC(=O)C=C[C@@]4(C)[C@]3(F)C(O)C[C@]21C (stereo not given in full) | -10%
CCOC(N)=O | -4%
CN=C(NC#N)Nc1ccc(C2=NNC(=O)C[C@@H]2C)cc1 | -17%
OC[C@@H](O)CN1CCN(c2ccccc2)CC1 | -7%

Among those listed so far, 7 have a Cl atom:
SMILES | HPGD block
Cc1cncn1CCc1nc2c3ccccc3nc(SCC(=O)Nc3cccc(Cl)c3)n2n1 | -12%
CC1Cc2ccccc2N1NC(=O)c1ccc(Cl)c(S(N)(=O)=O)c1 (stereo not given) | -1%&-3%
COc1cc2ncnc(Nc3cccc(Cl)c3)c2cc1OC | ?
CC1CC2C3CCC4=CC(=O)C=C[C@]4(C)[C@@]3(Cl)C(O)C[C@]2(C)C1(OC(=O)c1ccco1)C(=O)CCl (stereo not given in full) | -5%
CC(=O)O[C@]1(C(C)=O)CC[C@@H]2[C@@H]3C=C(Cl)C4=CC(=O)[C@H]5C[C@@H]5[C@]4(C)[C@H]3CC[C@]21C | 0%
COc1cc(N)c(Cl)cc1C(=O)N[C@H]1CCN(CCCOc2ccc(F)cc2)C[C@@H]1OC | -16%
Oc1ccc(C2CNCCc3c2cc(O)c(O)c3Cl)cc1 (stereo not given) | -16%

(next part)
SMILES | HPGD block
CN(C)CCCC1(c2ccc(F)cc2)OCc2cc(C#N)ccc21 (stereo not given) | 0%&-14%
C[C@@H](C(=O)O)c1ccc(C(=O)c2cccs2)cc1 | -18%
C=C1c2cccc(O)c2C(O)=C2C(=O)[C@]3(O)C(O)=C(C(N)=O)C(=O)C(N(C)C)C3C(O)C12 (stereo not given in full) | 16µM*
CCCCNc1ccc(C(=O)OCCOCCOCCOCCOCCOCCOCCOCCOCCOC)cc1 | -7%
NOCC(=O)O | -16%

An excerpt from above in order of molar mass, rising:
SMILES | HPGD block
NOCC(=O)O | -16%
CN(C)CCCC1(c2ccc(F)cc2)OCc2cc(C#N)ccc21 (stereo not given) | 0%&-14%
C=C1c2cccc(O)c2C(O)=C2C(=O)[C@]3(O)C(O)=C(C(N)=O)C(=O)C(N(C)C)C3C(O)C12 (stereo not given in full) | 16µM*
